Mtb hypoxia inh – inhibitors of hypoxia-regulated fluorescent reporter in Mycobacterium tuberculosis | M. tuberculosis hypoxia-regulated fluorescent reporter, fluorescence | fluorescence inhibition, % (no concentration beside the values) | hit rate 0.1% among 300,000;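 active = 35 to 45% if threefold the growth effect, above 45% if 1.5-fold the growth effect; inactive = the rest, general growth blockers included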;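 note: wells of about 50 µL received 100 nL stock; 0% = vehicle wells and 100% = reference inhibitor wells; whole bacteria with a GFP reporter of the hypoxia response; strong numbers were not always called active; many hits fall short of the cut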
Sa ugtP lethal – kills S. aureus RN4220 lacking UgtP. S. aureus RN4220 ugtP deletion, OD600 growth, 16 h; some inactives read as strong as hits. growth inhibition, % (test concentration not listed). hit rate 0.54% among 330,000. AID 1259309;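 active = z-score under -3 and OD600 up to 0.15 on both plates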;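 note: plate controls were untreated wells for no effect and antibiotic for full effect; wells of about 80 µL received 100 nL stock; the first replicate is given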
Sa RN4220 lethal – kills Staphylococcus aureus RN4220 | S. aureus RN4220 growth, OD600, 16 h | hit rate 0.33% among 330,000 | inhibition, % (concentration not given with the values);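 active = z-score of -3 or lower and OD600 up to 0.18 on both plates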;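 note: plate controls were untreated cells for no effect and reference antibiotic for full effect; stock transfer was 100 nL into about 80 µL; one replicate is shown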
Bead autofluor – compound fluorescence in toxin protease inhibitor counterscreen; AID 624483; hit rate 3.1% among 360,000; fluorescence intensity (test concentration not listed); compound autofluorescence counterscreen, microsphere flow cytometry; active compounds read high;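 active = at least 3 SD above the mean of all compounds, about 16000 in these data; inconclusive = too few beads counted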;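 note: 100 nL of 1 mM stock went into each well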
PrP 5UTR inh – suppresses PrP 5' UTR mRNA reporter expression; cell-based PrP 5' UTR mRNA reporter, plate reader; inhibition, % (concentration not given with the values); hit rate 0.35% among 340,000; AID 488862;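 active = every replicate at 50% or more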;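 note: 0 = median of the neutral control wells; tested in H4 reporter cells; numbers are from one replicate; inactives centre near -14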
BJeLR lethal – kills HRASV12-expressing BJeLR cells | BJeLR (HRASV12) viability, CellTiter-Glo ATP luminescence, 48 h; reference of the scale not given here | inhibition, % (no concentration beside the values) | hit rate 0.17% among 300,000 | AID 1554;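 active = replicate mean above 50%; inconclusive = above 50% but judged a plate artefact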;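 note: 50 nL library stock added to about 25 µL; numbers are from one replicate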
Mtb hypoxia inh growth – also measured in Mtb hypoxia inh; calls as there; growth inhibition, %; measured here: M. tuberculosis growth (absorbance);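 0% = vehicle and 100% = reference antibiotic; read after six days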
Starred values were filed as active, the others as inactive; ? = inconclusive; / = no result given.

SMILES	Mtb hypoxia inh	Mtb hypoxia inh growth	Sa ugtP lethal	Sa RN4220 lethal	Bead autofluor	PrP 5UTR inh	BJeLR lethal
COCCNc1oc(-c2ccco2)nc1S(=O)(=O)c1ccccc1	0	-4	21	5.2	4509	-6	4
O=S(=O)(c1ccc(Cl)cc1)N1CCC2(CC1)OCCO2	1	11	-1	1.3	4786	-9	-3
CN(Cc1ccc(OCC(O)CN2CCCCC2)cc1)Cc1ccnc2ccccc12 (stereo not given)	12	0	6	5.8	6739	6	8
Clc1ccc(OCCN2CCCCC2)c(Cl)c1	0	11	2	2.8	6937	-26	5
COc1ccc(N(C(=O)Cn2nnc(-c3ccc(C)o3)n2)C(C(=O)NC2CCCC2)c2ccncc2)cc1 (stereo not given)	-1	4	7	-0.5	5347	-2	4
O=C(CN(CC1CCCO1)C(=O)CNS(=O)(=O)c1ccc(Cl)cc1)NCc1ccccc1 (stereo not given)	0	1	6	4.5	5120	-17	-9
Cc1ccc(NC(=O)COC(=O)c2ccccc2Nc2ccccc2)cc1	6	5	-1	-4.7	2554	-2	-1
Cc1ccc(S(=O)(=O)Nc2cccc(Cl)c2)cc1NC(=O)C1CC1	8	2	-10	7.4	6545	-10	/
Cn1cccc1Cc1nnc(SCC(=O)Nc2ccc3c(c2)OCO3)n1-c1ccc(F)cc1	/	/	9	3.3	5402	-6	5
COC(=O)c1cc(CNC(=O)c2cccc(Cl)c2)ccc1OC	7	4	6	2.2	2747	-14	-1
CCC1C(=NO)C(CC)C(c2ccccc2)NC1c1ccccc1 (stereo not given)	9	-2	23	-14	4278	-17	3
COc1cc2c(cc1OC)CC(=O)NC=C2	11	4	18	6.3	4517	-14	-1
O=C(CCN1CCN(Cc2ccccc2)CC1)Nc1ccccc1Cl	-1	0	4	-1.6	2777	-18	2
COc1ccc(CNC(=O)C2CCCN(S(=O)(=O)c3ccc(F)cc3)C2)cc1 (stereo not given)	7	-8	4	3.1	5625	-12	3
Nc1nonc1C(=NO)N1CCN(CCO)CC1	9	13	-1	-1.0	/	/	/
O=[n+]1c2c(n([O-])c3cc(Cl)ccc31)CCCC2	/	/	4	1.8	2897	-11	-1
CCOc1ccc(NC(=O)CC2C(=O)N(c3ccc(OC)c(Cl)c3)C(=S)N2C2CC2)cc1 (stereo not given)	3	-9	-4	7.0	5379	-5	-4
CN(C)Cc1c(O)c(Cl)cc2c3c(c(=O)oc12)CCCC3	4	1	-4	-5.9	2371	-12	-9
CN(C)S(=O)(=O)c1ccc(N2CCCC2)c(C(=O)NNC(=O)c2ccc(F)cc2)c1	2	6	46	73	2936	-11	/
CC(C)N(Cc1nc(-c2ccccc2)no1)C(=O)COc1ccccc1	5	4	9	9.2	5270	-14	-12
O=C(CCSCc1ccccc1F)NCc1ccc(F)cc1	9	-8	2	-3.0	3252	-17	-2
Cn1c(=NC(=O)c2cccc([N+](=O)[O-])c2)sc2ccccc21	-3	1	7	10	3080	-111	0
CCCN1C(=O)/C(=C/c2ccc(C)s2)NC1=S	-4	-8	-7	-0.7	2644	-9	-14
Cc1cccc(NC(=O)CN2NS(=O)(=O)c3ccccc3C2=O)c1	2	9	2	1.6	6106	-6	-5

Limited to Mtb hypoxia inh growth, for some of the entries so far:
compound,Mtb hypoxia inh growth
COc1ccc(N(C(=O)Cn2nnc(-c3ccc(C)o3)n2)C(C(=O)NC2CCCC2)c2ccncc2)cc1 (stereo not given),4
Cn1c(=NC(=O)c2cccc([N+](=O)[O-])c2)sc2ccccc21,1
CC(C)N(Cc1nc(-c2ccccc2)no1)C(=O)COc1ccccc1,4

(more compounds)
SMILES	Mtb hypoxia inh	Mtb hypoxia inh growth	Sa ugtP lethal	Sa RN4220 lethal	Bead autofluor	PrP 5UTR inh	BJeLR lethal
CC(C)c1ccc(-c2nc(N3CCOCC3)[nH]c(=O)c2C#N)cc1	1	1	-9	7.4	5424	-4	-1
O=C(NCC1(O)CCCCC1)C1CCC(=O)N(CCc2ccccc2)C1 (stereo not given)	1	-10	11	4.2	?	-4	-2
Cc1ccc(S(=O)(=O)Cn2nnnc2C(c2ccc(F)cc2)N2CCCCC2)cc1 (stereo not given)	-1	0	-6	2.6	9102	-13	-2
COCCNC(=O)/C(C#N)=C/c1cn(CC(=O)NCc2ccco2)c2ccccc12	4	2	6	3.5	3970	-15	-7
Oc1ccc(C(=S)N2CCCCCC2)cc1	8	9	11	5.4	/	-16	-2
CCOC(=O)c1csc(N/N=C2\CCCc3ccccc32)n1	/	/	/	/	4097	-21	0
Cc1ccc(CNCc2cccnc2)cc1	/	/	2	1.9	2763	-12	-4
C=CCN(CC=C)CCOc1ccccc1F	8	0	-6	4.6	2757	-16	0
COc1ccc(CNC(=O)C[C@H]2C[C@H](C(=O)N(C(C)C)C(C)C)[C@@]3(C)c4[nH]c5cc(-c6ccco6)ccc5c4CCN3C2=O)cc1OC	-3	2	10	-5.5	2859	-9	/
COc1ccccc1/C=N/NC(=O)c1cccc(NC(=O)c2ccccc2C)c1	/	/	/	/	5861	-3	-4
CCOc1ccc(CCNC(=O)c2c(C)nn(-c3ccccc3)c2Cl)cc1OCC	7	5	5	2.3	5635	7	2
CCc1ccc2nc(NC(=O)c3ccc4c(=O)[nH]c(CN5CCOCC5)nc4c3)sc2c1	3	-2	-26	-0.8	/	/	8
CCOC(=O)CN1C(=O)S/C(=C/c2ccc(OCc3ccc(C(=O)O)cc3)cc2)C1=O	2	3	2	12	4163	-11	0
COc1ccc(-c2nc(CCNC(=O)c3ccco3)cs2)cc1OC	3	6	-3	-7.6	5684	-3	2
Cc1cc(C)c2nc(N3CCC(C(=O)NCc4ccccn4)CC3)sc2c1	1	-7	-5	-2.3	2066	-13	2
CCOC(=O)c1ccccc1NC(=O)CC(C)CC(=O)O (stereo not given)	/	/	12	-3.1	2485	-11	-3
CCN1C(=O)C(O)(CC(=O)c2cccc(-n3cccc3)c2)c2ccccc21 (stereo not given)	10	2	5	-0.4	3837	-30	3
C(=NN1CCN(Cc2cccc3ccccc23)CC1)c1cccnc1	2	13	1	3.0	/	/	/
CC=CC=CC(=O)Nc1cccc(C2=NOC3(C2)CC(C(N)=O)N(C(=O)c2cc([N+](=O)[O-])cc([N+](=O)[O-])c2C)C3)c1 (stereo not given)	11	14	-5	8.3	/	/	/
COC(=O)C1=C(N)Oc2cc(C)[nH]c(=O)c2C1c1ccncc1 (stereo not given)	/	/	2	1.7	4326	-8	-2
COc1cccc(-n2c(=O)c3ccccc3n3c(=S)[nH]nc23)c1	6	3	5	6.3	3866	-13	-8
COc1ccc(Cl)cc1CN1CCOCC1	-4	10	5	4.1	3476	-9	-2
Oc1ccc(Cl)cc1CNCc1ccc(F)cc1	/	/	4	6.0	4050	-8	/
COc1ccc(C(O)c2ccccc2OP(=O)(N(C)C)N(C)C)cc1 (stereo not given)	10	8	16	1.3	2364	-5	14
CC(C)(C)CC(=O)Nc1ccc(S(=O)(=O)N2CCCC2)cc1	14	2	8	5.5	4565	-16	5
COc1cccc(C(=O)Nc2ccccc2F)c1	2	4	5	10	2601	-31	-3
CCS(=O)(=O)Nc1c(C(=O)O)[nH]c2ccccc12	1	7	-3	1.7	5665	-6	7
O=C(COC(=O)c1cc(=O)[nH]c(=O)[nH]1)Nc1cccc(S(=O)(=O)N2CCCCC2)c1	7	4	4	3.9	4355	-34	10
O=C(OCC#CCSc1nnc(-c2ccc(Br)cc2)o1)c1ccco1	35*	21*	9	9.9	3696	-8	-8
O=C(NC1CC(=O)N(c2ccc3c(c2)OCCO3)C1)N1CCCCC1 (stereo not given)	-10	4	4	1.1	?	-9	3
CC(C)c1cccc(C(C)C)c1NC(=O)CN(C)C1CCS(=O)(=O)C1 (stereo not given)	-4	3	2	3.2	3423	-24	/
O=C(CCNC(=O)C1CCN(S(=O)(=O)c2ccccc2)CC1)NCCc1ccc(Cl)cc1	9	-4	2	5.5	6034	-4	4
CN(C)S(=O)(=O)c1ccc(C(=O)OCC2CC2(Cl)Cl)cc1 (stereo not given)	-4	7	7	6.1	5717	-8	-9
Cc1cccc(NC(=O)COc2cccc3c2CCN(C)C3=O)c1C	10	7	5	5.3	4283	-8	-14
CC(CC(c1ccccc1)c1c(O)c2ccccc2oc1=O)=NNc1ccc([N+](=O)[O-])cc1[N+](=O)[O-] (stereo not given)	2	4	0	23	/	/	/
Oc1ccc(C2CNCc3sccc32)cc1O (stereo not given)	3	10	-9	5.6	5398	-21	/
c1ccc(-c2cnnc(SCc3cn4cccnc4n3)n2)cc1	0	1	-3	7.1	2608	-19	35
c1cncc(CSc2nnc(-c3cccnc3)n2Cc2ccco2)c1	-4	4	-2	1.7	/	/	-4
CCc1ccc(Nc2ncc3c(n2)CC(C)CC3=O)cc1 (stereo not given)	-2	12	3	3.5	4530	-77	-7
O=C1CN(C(=O)c2ccc(F)cc2)c2ccccc2N1	2	-1	10	6.0	5047	-21	-1
Cc1ccc(S(=O)(=O)Nc2ccc(N3CCOCC3)cc2)cc1	-5	14	-5	5.1	9318	-12	-2
COc1ccc(CN2CCN(Cc3c[nH]c4ccccc34)CC2CCO)cc1C (stereo not given)	-12	-3	11	6.4	3320	-1	9
CCCCOC(=O)N1CCOCCOCCN(C(=O)OCCCC)CCOCCOCC1	/	/	7	6.0	2793	-22	7
CO/N=C/c1ccc(Sc2ccccc2N)c([N+](=O)[O-])c1	/	/	/	/	4239	-11	4
O=[N+]([O-])c1cccc(-c2nnc(C34CC5CC(CC(C5)C3)C4)o2)c1	0	11	1	5.3	2160	-22	0
O=C(CCCCCn1c(=S)[nH]c2ccccc2c1=O)N1CCC2(CC1)OCCO2	9	21	4	2.7	21724*	-8	0
CC1(c2nnc(Cc3ccccc3)o2)CC(c2cccnc2)=NO1 (stereo not given)	10	10	0	6.9	3974	-19	-2
CCN(CC)c1ccc(/C=N/n2c(C)cc(C)cc2=O)cc1	/	/	/	/	19156*	-62	4

Of the compounds above, these have a cyano group:
SMILES	Mtb hypoxia inh	Mtb hypoxia inh growth	Sa ugtP lethal	Sa RN4220 lethal	Bead autofluor	PrP 5UTR inh	BJeLR lethal
CC(C)c1ccc(-c2nc(N3CCOCC3)[nH]c(=O)c2C#N)cc1	1	1	-9	7.4	5424	-4	-1
COCCNC(=O)/C(C#N)=C/c1cn(CC(=O)NCc2ccco2)c2ccccc12	4	2	6	3.5	3970	-15	-7

Next compounds follow.
SMILES	Mtb hypoxia inh	Mtb hypoxia inh growth	Sa ugtP lethal	Sa RN4220 lethal	Bead autofluor	PrP 5UTR inh	BJeLR lethal
Cc1ccc(S(=O)(=O)N2CCN(C(=O)COC(=O)c3ccc(Cl)nc3)CC2)c(C)c1	-4	5	-1	0.3	9292	-6	/
O=C1C(Cl)=C(NCCCN2CCOCC2)C(=O)N1CCc1ccccc1	11	3	1	4.9	22919*	2	8
CCCCCn1c(=NC(=O)c2cccnc2)c(C#N)cc2c(=O)n3cccc(C)c3nc21	-15	1	-3	0.1	4292	-10	2
CCc1ccccc1NC(=O)c1ccc(S(=O)(=O)N2CCCC2)cc1	1	-1	4	4.0	4379	-4	-4
O=C(N/N=C/c1ccccn1)c1cc(Br)ccc1O	/	/	/	/	2929	-23	4
Cc1ccc(NC(=O)c2cc3c(s2)CCC3)cc1S(=O)(=O)N1CCOCC1	9	11	-7	-4.0	10989	-15	-14
NC(=O)CSc1nc(-c2ccccc2)nc2ccccc12	-7	2	-5	1.3	3506	-9	-4
CC(=O)Nc1ccc2c(c1)Cc1c-2cc(Br)c(N)c1Br	10	4	9	1.0	4385	-24	/
CCOC(=O)C1CCN(S(=O)(=O)c2ccc3c(c2)CCN3C(C)=O)CC1	5	3	6	0.6	5160	-35	4
Cc1ccc(C(=O)NN=C/C=C/c2ccccc2)cc1	-4	-13	1	3.2	/	/	/
CC1=NN(C(=O)c2csc(C)c2C)C(O)(C(F)(F)F)C1 (stereo not given)	-5	11	-1	6.2	2484	-22	10
CCN1C(=O)C2C(c3ccc(-c4ccc(C(C)=O)cc4)cc3)N[C@@](Cc3ccccc3)(C(=O)OC)C2C1=O (stereo not given in full)	18	13	9	4.5	/	/	/
CC(=O)Nc1nc2ccccc2[nH]1	2	19	1	1.4	4394	-6	0
Cc1ccc(NC(=O)CCSc2nnc3ccccn23)cc1	11	6	5	2.3	3608	7	-4

Screening data deposited in PubChem BioAssay by several laboratories.

The order is random; overall some 4% were active at least once.
